High-throughput results (PubChem BioAssay)
DUX4 inh: inhibitors of DUX4-driven ZSCAN4 reporter expression, primary screen, 293T cells, Gaussia and Italica luciferase | 293T-iDUX4 ZSCAN4-Gaussia luciferase reporter, 24 h; active compounds read low | activity change, negative = inhibition, % (test concentration not listed) | hit rate 0.8% among 37,000 | AID 1224904, 2016;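 active means -10% or lower and over 25 points stronger than a control reporter; inconclusive means -10% or lower with a smaller gap; inactive means above -10%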;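 further: 0% = median of neutral control wells and -100% = median of positive control wells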
DUX4 inh difference: further read-out of DUX4 inh, marked with its call; Gaussia minus Italica difference, %; measured here: selective DUX4 reporter inhibition;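 worked out from the two reporters; negative = selective loss of the DUX4 reporter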
DUX4 inh control: recorded beside DUX4 inh, whose call it bears; activity change, negative = inhibition, %; measured here: Italica tet-on control reporter;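 0 = neutral control and -100 = positive control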
An asterisk follows results filed as active; ? = inconclusive; nt = no result given; & = joins results of further samples. A portion of the library (hit frequency here may not be typical).

SMILES	DUX4 inh	DUX4 inh difference	DUX4 inh control
CC(=O)N1[C@H](C(=O)NC2Cc3ccccc3C2)[C@@H](CO)[C@@H]2Cn3c(ccc(-c4ccncc4)c3=O)[C@@H]21	-6.5	-6.1	-0.4
C[C@H]1CN([C@@H](C)CO)C(=O)c2c(c3ccccc3n2C)-c2ccccc2CO[C@@H]1CN(C)C(=O)CCN(C)C	8.8	3.7	5.1
CN(C)C(=O)[C@H]1[C@H](CO)[C@H]2Cn3c(ccc(-c4ccccc4F)c3=O)[C@@H]1N2C(=O)c1ccccc1	4.3	4.0	0.3
CO[C@@H]1CN(C)C(=O)c2cc(NC(=O)Cc3ccccc3)ccc2OC[C@H](C)N(C)C[C@@H]1C	6.5	8.2	-1.7
C[C@@H]1CN([C@@H](C)CO)C(=O)c2ccccc2-c2ccccc2CO[C@@H]1CN(C)C(=O)Cc1ccccc1	13.5	15.5	-2.1
N#C[C@@H]1[C@@H](c2ccc(C#Cc3ccccc3F)cc2)[C@H](CO)N1C(=O)c1cccnc1	0.2	-1.2	1.4
CCS(=O)(=O)Nc1ccc2c(c1)C(=O)N(C)[C@H]1CC[C@@H](CC(=O)OC)O[C@@H]1CO2	3.6	1.7	2.0
O=C(C[C@H]1CC[C@@H]2[C@H](COC[C@H](O)CN2S(=O)(=O)c2cccc(F)c2)O1)Nc1ccccc1	-5.4	-8.5	3.0
CN1CCN(C(=O)C[C@H]2C[C@H]3c4cc(NS(C)(=O)=O)ccc4O[C@H]3[C@@H](CO)O2)CC1	5.8	5.7	0.1
COc1ccc(CN(C)C[C@@H]2Oc3ccc(NC(=O)Nc4ccc5c(c4)OCO5)cc3CC(=O)N([C@@H](C)CO)C[C@H]2C)cc1	1.0	0.0	1.0
COCC(=O)Nc1ccc2c(c1)C(=O)N(C)C[C@H](OC)[C@H](C)CN(CC1CCCCC1)[C@@H](C)CO2	-1.4	-2.5	1.0
C[C@@H](NC(=O)C[C@@H]1C[C@@H]2c3cc(NC(=O)c4ccc5c(c4)OCO5)ccc3O[C@@H]2[C@H](CO)O1)c1ccccc1	4.8	2.4	2.3
CN(C)CC(=O)N1[C@H](C#N)[C@H](c2ccccc2-c2ccc(C(=O)N(C)C)cc2)[C@H]1CO	19.7	11.7	8.0
CNC[C@H]1OCCCC[C@H](C)Oc2ccc(NS(=O)(=O)c3ccc(F)cc3)cc2C(=O)N([C@H](C)CO)C[C@H]1C	-0.1	-0.4	0.2
O=C(Nc1cccc(Cl)c1)N1C[C@@H]2[C@H](c3ccccc31)[C@H](CO)N2Cc1ccccc1Cl	1.2	-0.9	2.2
CS(=O)(=O)N1[C@H](C#N)[C@@H](c2ccc(-c3ccccc3F)cc2)[C@@H]1CO	-3.4	-3.9	0.5
CCC(=O)N(C)C[C@@H]1Oc2ncc(C#CC(C)C)cc2C(=O)N([C@@H](C)CO)C[C@H]1C	0.2	-0.2	0.4
O=C(C[C@@H]1CC[C@@H]2[C@H](COC[C@@H](O)CN2C(=O)C2CCOCC2)O1)NCc1ccncc1	7.1	4.6	2.6
CO[C@@H]1CN(C)C(=O)c2ccc(NS(=O)(=O)CC(F)(F)F)cc2OC[C@H](C)N(Cc2nccs2)C[C@H]1C	-0.3	-7.8	7.5
O=C(Nc1ccc(C(F)(F)F)cc1)N[C@H]1C=C[C@@H](CC(=O)N2CCCCC2)O[C@H]1CO	-8.7	-6.1	-2.6
CCS(=O)(=O)N1CC(=O)N2[C@H](CO)[C@@H](c3ccc(-c4cccc(F)c4)cc3)[C@H]2C1	6.4	8.0	-1.6
COc1ccccc1NC(=O)N1C[C@@H](O)COC[C@H]2O[C@H](CC(=O)NCCc3ccncc3)CC[C@@H]21	5.2	7.8	-2.5
C[C@@H]1CN([C@@H](C)CO)C(=O)c2cc(NC(=O)CCN3CCOCC3)ccc2O[C@@H]1CN(C)Cc1ccc(C(F)(F)F)cc1	4.2	-0.1	4.3
C[C@H](CO)N1C[C@H](C)[C@H](CN(C)C(=O)Nc2cccc(C(F)(F)F)c2)OCc2cnnn2CCCC1=O	-2.7	-2.2	-0.5
COCC(=O)N1C[C@H]2[C@@H](c3ccccc31)[C@H](CO)N2Cc1ccccc1F	0.8	-1.4	2.2
CC(C)[C@@H]1C(=O)NCCC=CC[C@H](C)Oc2ccccc2C(=O)N1C (mixture of isomers)	-5.6	-1.7	-3.9
O=C(C[C@H]1CC[C@H]2[C@@H](COC[C@@H](O)CN2Cc2cccc(Cl)c2)O1)NCc1cccc(F)c1	-9.6	5.2	-14.8
COc1cccc(NC(=O)C[C@H]2CC[C@H]3[C@@H](COc4ccc(NS(=O)(=O)c5cccc(F)c5)cc4C(=O)N3C)O2)c1	4.3	5.6	-1.3
COc1cccc(CNC(=O)C[C@@H]2CC[C@@H](NC(C)=O)[C@H](CO)O2)c1	5.2	1.5	3.7
COc1ccc2c3c(n(C)c2c1)[C@@H](CO)N(C(=O)c1ccccc1)CC31CCN(C)CC1	14.7	11.2	3.4
CC(C)C#Cc1ccc([C@@H]2[C@H](C#N)N(C(=O)C3CC3)[C@H]2CO)cc1	-0.9	-4.0	3.1
O=C(Cc1ccccc1)N1C[C@@H]2[C@H](c3ccccc31)[C@@H](CO)N2C(=O)Nc1ccc(F)cc1	0.3	-2.2	2.5
COC(=O)C[C@H]1C[C@@H]2c3cc(NC(=O)C4CCOCC4)ccc3O[C@@H]2[C@H](CO)O1	4.9	4.2	0.7
C[C@H](CO)N1C[C@H](C)[C@@H](CN(C)C(=O)[C@H](C)c2ccccc2)OCc2ccccc2-c2c(n(C)c3ccccc23)C1=O	?	nt	nt
CN(C)C(=O)c1cccc(-c2ccc(C3[C@@H]4CN(C(=O)CN5CCOCC5)C[C@H]3N4)cc2)c1 (some centres not stated)	12.9&14.5	12.6&-1.4	0.2&15.9
O=C(c1ccncc1)N1C[C@@H]2[C@H](c3ccccc31)[C@@H](CO)N2Cc1ccccc1F	3.8	3.8	0.0
C[C@@H]1CN([C@H](C)CO)C(=O)c2ccccc2-c2ccccc2CO[C@@H]1CN(C)C	8.6	9.8	-1.2
O=S(=O)(Cc1ccccc1)N1CCCCN2[C@H](CO)[C@H](c3ccc(-c4cccnc4)cc3)[C@H]2C1	?	nt	nt
Cc1ccc(S(=O)(=O)Nc2ccc3c(c2)C(=O)N([C@H](C)CO)C[C@@H](C)[C@H](CN(C)S(=O)(=O)c2cccs2)OCCCC[C@@H](C)O3)cc1	2.2	-1.1	3.2
CN(C)C(=O)c1ccc(-c2ccc3n(c2=O)C[C@H]2[C@H](CO)[C@@H](C(=O)NCCc4ccccc4)N[C@@H]32)cc1	2.9	-1.2	4.1
O=C(C[C@@H]1CC[C@H](NC(=O)Nc2ccccc2F)[C@H](CO)O1)NCc1ccc(Cl)cc1	-0.7	0.9	-1.5
O=C(C[C@@H]1CC[C@@H]2[C@H](COC[C@H](O)CN2C(=O)c2cnccn2)O1)NCc1ccc(Oc2ccccc2)cc1	-2.8	-5.5	2.7
O=C(C1CCOCC1)N1CC(=O)N2[C@@H](CO)[C@H](c3ccc(C#Cc4cccc(F)c4)cc3)[C@@H]2C1	?	nt	nt
CNC(=O)C[C@@H]1CC[C@@H]2[C@@H](COc3ccc(NC(=O)Nc4ccccc4OC)cc3C(=O)N2C)O1	-4.7	-6.7	2.0
CCCNC(=O)[C@@H]1[C@@H](CO)[C@@H]2Cn3c(ccc(/C=C/c4ccccc4)c3=O)[C@H]1N2C(=O)c1ccncc1	7.1	-3.4	10.5
O=C(c1cccc(F)c1)N1CCCCN2[C@@H](CO)[C@H](c3ccc(/C=C/c4ccccc4)cc3)[C@@H]2C1	?	nt	nt
N#C[C@@H]1[C@H](c2ccccc2C2=CCCC2)[C@H](CO)N1C(=O)CN1CCOCC1	11.2	-9.2	20.4
N#C[C@H]1[C@H](c2ccc(C3=CCCCC3)cc2)[C@H](CO)N1C(=O)NC1CCCC1	-2.2	-4.1	2.0
C[C@H](CO)N1C[C@H](C)[C@H](CN(C)S(=O)(=O)c2ccc(F)cc2)Oc2ccc(NC(=O)C3CCCCC3)cc2CC1=O	-0.4	-0.4	0.0
COCC(=O)N1CC2(C1)[C@H](c1ccc(-c3ccc(F)cc3)cc1)[C@H](CO)N2C(=O)C1CC1	9.5	10.2	-0.7
CCCN1[C@@H]2Cn3c(ccc(-c4ccc(F)cc4)c3=O)[C@H]1[C@@H](C(=O)NCCc1cn(C)cn1)[C@@H]2CO	0.9	0.1	0.8
C[C@H](CO)N1C[C@H](C)[C@@H](CN(C)Cc2ccc(Cl)c(Cl)c2)Oc2c(NC(=O)C3CCCCC3)cccc2C1=O	-3.1	-1.3	-1.8
CN(C)CC#Cc1ccc([C@H]2[C@H](CO)N3CCCCN(C(=O)C4CCC4)C[C@@H]23)cc1	10.3	18.6	-8.3
CO[C@@H]1CN(C)C(=O)c2ccc(NC(C)=O)cc2OC[C@@H](C)N(C(=O)c2cnccn2)C[C@H]1C	12.8	11.8	1.0
COCCNC(=O)C[C@@H]1C[C@@H]2c3cc(NC(=O)C4CCC4)ccc3O[C@@H]2[C@@H](CO)O1	2.7	-4.3	7.1
COc1ccccc1S(=O)(=O)N1CC[C@@H]2[C@H]1c1cc(-c3ccccc3F)ccc1N(C)[C@H]2CO	0.3	4.8	-4.5
COC(=O)C[C@H]1C[C@H]2c3cc(NS(=O)(=O)c4cccc(OC)c4)ccc3O[C@H]2[C@H](CO)O1	3.6	-1.5	5.1
CC(C)NC(=O)Nc1ccc2c(c1)C(=O)N([C@@H](C)CO)C[C@H](C)[C@@H](CN(C)C(=O)C1CCCCC1)OCCCC[C@@H](C)O2	-0.3	-2.7	2.4
CN(C)CC(=O)N1[C@H](C#N)[C@@H](c2ccc(C#CC3CCCCC3)cc2)[C@@H]1CO	-1.5	-1.5	-0.1
C[C@H]1CN([C@@H](C)CO)S(=O)(=O)c2ccc(C#Cc3cccc(F)c3)cc2O[C@@H]1CN(C)S(=O)(=O)c1cn(C)cn1	-1.4	-2.4	1.0

6 entries from above, sorted by their value in DUX4 inh, ascending:
Compound,DUX4 inh,DUX4 inh difference,DUX4 inh control
O=C(C[C@@H]1CC[C@@H]2[C@H](COC[C@H](O)CN2C(=O)c2cnccn2)O1)NCc1ccc(Oc2ccccc2)cc1,-2.8,-5.5,2.7
C[C@H](CO)N1C[C@H](C)[C@H](CN(C)S(=O)(=O)c2ccc(F)cc2)Oc2ccc(NC(=O)C3CCCCC3)cc2CC1=O,-0.4,-0.4,0.0
CC(C)NC(=O)Nc1ccc2c(c1)C(=O)N([C@@H](C)CO)C[C@H](C)[C@@H](CN(C)C(=O)C1CCCCC1)OCCCC[C@@H](C)O2,-0.3,-2.7,2.4
CCCN1[C@@H]2Cn3c(ccc(-c4ccc(F)cc4)c3=O)[C@H]1[C@@H](C(=O)NCCc1cn(C)cn1)[C@@H]2CO,0.9,0.1,0.8
COCC(=O)N1CC2(C1)[C@H](c1ccc(-c3ccc(F)cc3)cc1)[C@H](CO)N2C(=O)C1CC1,9.5,10.2,-0.7
N#C[C@@H]1[C@H](c2ccccc2C2=CCCC2)[C@H](CO)N1C(=O)CN1CCOCC1,11.2,-9.2,20.4

(more compounds)
SMILES	DUX4 inh	DUX4 inh difference	DUX4 inh control
O=C(N[C@H]1CC[C@H](CC(=O)N2CCc3ccccc3C2)O[C@@H]1CO)C1CCOCC1	14.8	13.9	0.9
C[C@H](CO)N1C[C@H](C)[C@@H](CN(C)C(=O)Nc2ccnc(N3CCOCC3)c2)OCc2ccccc2-c2c(n(C)c3ccccc23)C1=O	-8.0	-10.2	2.3
O=C(C[C@H]1C[C@@H]2c3cc(NC(=O)CC4CC4)ccc3O[C@@H]2[C@H](CO)O1)NCCN1CCCCC1	-5.7	-4.4	-1.3
COc1ccc2c3c(n(C)c2c1)[C@@H](CO)N(C(C)=O)CC31CCN(C(=O)c2cnccn2)CC1	16.2	-3.8	20.1
CNC[C@H]1Oc2cc(Br)ccc2S(=O)(=O)N([C@H](C)CO)C[C@H]1C	-0.9	0.3	-1.2
C[C@H](CO)N1C[C@H](C)[C@@H](CN(C)C(=O)Nc2ccc(-c3cccs3)cc2)OCc2cn(nn2)CCCC1=O	-1.3	-2.9	1.6
C[C@@H]1CN([C@@H](C)CO)C(=O)CCCn2nncc2CO[C@H]1CN(C)C(=O)Nc1ccc(F)cc1	-2.3	-2.9	0.6
O=S(=O)(c1ccccc1F)N1C[C@@H]2[C@H](c3ccccc31)[C@H](CO)N2Cc1ccc2c(c1)OCO2	-1.1	-9.9	8.7
CC(C)NC(=O)N1CC[C@@H]2[C@H]1c1cc(Br)ccc1N(C)[C@@H]2CO	13.6	-4.6	18.2
CCNC(=O)[C@H]1[C@H](CO)[C@H]2Cn3c(ccc(-c4ccc(F)cc4)c3=O)[C@H]2N1Cc1cc(F)ccc1F	-4.7	-6.9	2.2
COC(=O)N(C)C[C@@H]1OCc2cnnn2CCCC(=O)N([C@@H](C)CO)C[C@H]1C	1.1	-1.3	2.3
O=C([C@H]1[C@H](CO)[C@H]2Cn3c(cccc3=O)[C@H]2N1CC1CCCCC1)N1CCOCC1	2.8	2.4	0.4
N#C[C@@H]1[C@H](c2ccc(C3=CCCC3)cc2)[C@H](CO)N1C(=O)c1cccc(F)c1	-2.1	-6.2	4.1
COCC(=O)N(C[C@H]1[C@H](c2ccccc2)[C@@H](CO)N1C(=O)NC(C)C)C(C)C	0.2	0.5	-0.3
O=C(c1ccccc1)N1C[C@H]2[C@@H](c3ccccc31)[C@@H](CO)N2C(=O)Nc1ccccc1Cl	3.6	-0.1	3.7
CC(C)NC(=O)N1CCCCN2[C@H](C1)[C@H](c1ccc(C#C[C@@H](C)O)cc1)[C@@H]2CO	25.3	10.8	14.5
O=C(c1cccnc1)N1CCCCN2[C@H](C1)[C@@H](c1ccc(C#Cc3ccccn3)cc1)[C@@H]2CO	12.6	21.1	-8.5
O=C(C[C@@H]1CC[C@@H]2[C@H](COC[C@H](O)CN2Cc2cccc(C(F)(F)F)c2)O1)NCCc1ccncc1	10.3	7.9	2.4
